# TRPML1 ag: qHTS for Agonists of the Human Mucolipin Transient Receptor Potential 1 (TRPML1). Mucolipin-1 (Homo sapiens), Q9GZU1. TRPML1-expressing cells, Ca2+ dye fluorescence, FDSS; host cell line not named in the record; reference of the full effect not given here. activation, % (concentration not given with the values). actives 0.12% (n = 410,000). AID 624414, 2012; in the data active = activation above about 50%; inconclusive = about 30% to 50%; inactive = below about 30%; further: 0% is about no effect; the text of the record puts the active cut at 80%
# Target sequence (Q9GZU1 whole entry, looked up): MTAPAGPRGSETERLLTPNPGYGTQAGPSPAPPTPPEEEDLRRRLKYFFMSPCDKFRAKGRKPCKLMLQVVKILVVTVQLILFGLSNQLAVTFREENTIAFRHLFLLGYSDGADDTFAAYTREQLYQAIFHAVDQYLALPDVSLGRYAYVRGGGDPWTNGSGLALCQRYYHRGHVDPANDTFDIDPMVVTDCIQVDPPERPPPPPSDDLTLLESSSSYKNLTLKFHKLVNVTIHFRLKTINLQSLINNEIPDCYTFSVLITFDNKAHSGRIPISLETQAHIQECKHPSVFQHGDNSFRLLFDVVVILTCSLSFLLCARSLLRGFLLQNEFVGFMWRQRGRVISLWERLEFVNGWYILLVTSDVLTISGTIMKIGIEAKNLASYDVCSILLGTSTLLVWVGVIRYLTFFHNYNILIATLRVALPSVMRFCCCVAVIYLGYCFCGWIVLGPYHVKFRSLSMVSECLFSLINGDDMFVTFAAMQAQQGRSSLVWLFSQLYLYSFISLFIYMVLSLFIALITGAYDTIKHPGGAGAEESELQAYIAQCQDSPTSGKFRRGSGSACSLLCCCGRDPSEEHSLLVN
#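 Kinetic FDSS Ca2+ read in Tet-induced TRPML1-DL cells (ABD Ca8 dye plus quencher, 45-90 min RT loading): baseline, then compound, then 110 s agonist window; EC80 agonist 54-4 at 4uM final added afterwards for a 110 s antagonist window.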
# gsp antag: qHTS for Antagonists of gsp, the Etiologic Mutation Responsible for Fibrous Dysplasia/McCune-Albright Syndrome: qHTS; actives 0.4% (n = 340,000); gsp-mutant cells, cAMP HTRF, 30 min; control for the full effect not named in the record; Potency, µM (series often up to 76.9 µM), without a hit: top-dose activity change, negative = inhibition, hits mostly inhibitors; active = falling curve of any shape with a large fitted effect; inconclusive = falling curve, mostly with a smaller effect; inactive = flat or rising curve; cell line not stated here;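 further: intracellular cAMP measured with PDE inhibitor Ro 20-1724 present during compound exposure; potency means the concentration at half of the fitted maximal effect; on the % scale 0 is the no-effect control and ±100 the full control effect; nearly all actives have a fitted effect of over 65% in size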
#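 HTRF cAMP measurement after 30 min RT detection following 30 min, 37C compound treatment alongside […] (added as 300 uM solution) in G418-selected cells seeded at 2000/well and grown 16–24 h.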
# gsp ag: qHTS for Agonist of gsp, the Etiologic Mutation Responsible for Fibrous Dysplasia/McCune-Albright Syndrome: qHTS; gsp mutant cells, cAMP HTRF, 30 min; control for the full effect not named in the record; AID 624287, 2012; Potency, µM (top dose mostly 76.9 µM), for inactives: at the top dose activation (cAMP increase), usual class: activators; actives 0.13% (n = 340,000); active = well fitted activation curve with a large enough effect; inconclusive = small, poorly fitted or top-dose-only effect, or another doubt; inactive = no such curve, though single readings can be large or run the other way; cell line not stated here;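 further: phosphodiesterase inhibitor Ro 20-1724 added with compounds to block cAMP breakdown; potency means the concentration at half of the fitted maximal effect; nearly all actives have a fitted effect of over 60% in size; about a fifth of the inactives were tested at one dose only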
#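 Cells in DMEM/10% FBS with G418 were pretreated with compounds in DMSO plus […] (300 uM stock) for 30 min at 37C. cAMP was measured by HTRF (cAMP-d2 plus anti-cAMP antibody-K) after 30 min at room temperature.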
# Menin-MLL FL inh: qHTS Assay for Inhibitors Targeting the Menin-MLL Interaction in MLL Related Leukemias: Competition With Fluorescein Labeled MLL-derived Peptide | Fluorescence polarization, fluorescein-MLL peptide displacement from menin | FP activity change, % at 61.4 µM | 290,000 tested, under 10 active | AID 1766, 2009; inconclusive = falling polarisation curve, or a change in total fluorescence; inactive = total fluorescence flat and polarisation flat or rising; no compound was filed as active; the % refers to the polarisation; negative = inhibition;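 further: % of control where 0% means no effect; inhibitors lower the polarisation; unlabelled MLL peptide was the positive control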
# ClpP mod: qHTS Assay for Activators of ClpP; ATP-dependent Clp protease proteolytic subunit (Bacillus subtilis (strain 168)), P80244; purified B. subtilis ClpP, FRET peptide cleavage, 20 min; Potency, µM (titrated, usually from 57.5 µM), for the others: top-dose activity change, negative = active; actives 1.9% (n = 340,000); active = well fitted falling curve with a large enough effect; inconclusive = small, poorly fitted or top-dose-only effect; inactive = no such curve, though single readings can be large or run the other way; further: potency means the concentration at half of the fitted maximal effect; the source files actives as falling curves though it sought activators and does not explain the sign; nearly all actives have a fitted effect of over 65% in size; many hits overshoot -100%
# Target sequence (P80244 whole entry, looked up): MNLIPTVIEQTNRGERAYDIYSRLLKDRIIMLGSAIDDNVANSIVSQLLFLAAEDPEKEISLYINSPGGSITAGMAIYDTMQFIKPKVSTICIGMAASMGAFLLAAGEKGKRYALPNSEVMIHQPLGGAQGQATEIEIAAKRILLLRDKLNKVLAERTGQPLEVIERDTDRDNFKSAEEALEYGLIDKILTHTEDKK
#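 Buffer: 100 mM Tris/HCl pH8, 100 mM KCl, 0.05% low protease BSA, 2.5% glycerol, 0.01% Tween-20. ClpP 10 microg/mL final; 20 min RT; delta FRET normalized to ADEP and DMSO controls.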
# TRPML1 blocker: qHTS for Inhibitors of the Human Mucolipin Transient Receptor Potential 1 (TRPML1). actives 0.02% (n = 390,000). AID 624415, 2012. activity change, negative = inhibition, % (no concentration beside the values). TRPML1-inducible cells, Ca2+ dye fluorescence, FDSS; active compounds read low; inhibition of EC80 agonist-evoked calcium signal; in the data active means activity change below about -50%; inconclusive means about -30% to -50%; inactive means above about -30%;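 further: stimulus is agonist 54-4 at its EC80 concentration; on the % scale 0 is the no-effect control and ±100 the full control effect; compound concentration not given in the record; the text of the record puts the active cut at -80%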
#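 Tet-induced TRPML1-DL cells loaded with Ca8 no-wash calcium dye were read kinetically on FDSS. Compound addition was followed by EC80 agonist 54-4 (4 uM final); inhibition was read over 110 s.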
# * = called active by the depositor; ? = inconclusive; · = no result given; [ ] = dose if it differs, or a comment.
mol | TRPML1 ag | gsp antag | gsp ag | Menin-MLL FL inh | ClpP mod | TRPML1 blocker
O=c1[nH]c2ccccc2n1Cc1ccccc1 | -1.0 | 7% | 5% | 1.1 | 0.2% | 20
CCOC(=O)N1CCN(C(=O)C(CC(C)C)NC(=O)C2CCCCC2)CC1 (configuration not stated) | -0.7 | -3% | 7% | -1.3 | 1.1% | 9
CCc1ccccc1Nc1nn2c(=O)c3ccc(C(=O)NC4CCCCC4)cc3nc2s1 | 0.4 | · | · | · | -2.3% | -2
CC(NC(=O)Cc1ccc(-c2ccccc2)cc1)c1ccccc1 (configuration not stated) | 0.3 | -1% | ? | 3.8 | 1.5% | -10
O=C(O)c1ccc(NC(=O)c2ccc(Cl)c(S(=O)(=O)N3CCCCCC3)c2)cc1 | -0.3 | · | · | · | 1.2% | -1
CCCNc1c(NS(=O)(=O)c2c(F)c(F)c(F)c(F)c2F)c(=O)oc2ccccc12 | -0.1 | 2% | 1% | · | -1.7% | 28
CS(=O)(=O)c1ccc(Cl)c(C(=O)NC2CCSc3ccccc32)c1 (configuration not stated) | 0.2 | 2% | 14% | -0.9 | · | 4
COc1cc(CCC(=O)NCC2CCCO2)cc(OC)c1OC (configuration not stated) | 0.0 | 15% | ? | 3.3 | 1.7% | -5
O=C(Nc1ccccc1)C12CC3CC(C1)CC(n1cnc([N+](=O)[O-])n1)(C3)C2 | -0.1 | -2% | -1% | 6.2 | -1.1% | 0
COc1ccc(CCNC(=O)Cc2c(C)c3cc(OC)c(OC)cc3oc2=O)cc1 | -0.4 | · | · | · | 4.5% | -29
COc1ccccc1CCNC(=O)C(=O)NCC1OCCN1S(=O)(=O)c1ccc2c(c1)OCCO2 (configuration not stated) | 0.1 | 2% | 39% | · | 0.4% | -15
COc1ccc(C2c3c(oc4ccccc4c3=O)C(=O)N2CCN2CCOCC2)cc1OC (configuration not stated) | 0.0 | 0% | -9%[15.4 µM] | · | · | -3
Cc1cccc(NS(=O)(=O)c2cc(C(=O)OC(C)C(=O)NCc3ccc4c(c3)OCO4)ccc2C)c1 (configuration not stated) | 0.1 | -16% | -13% | 12 | -0.9% | 10
COc1ccc(-n2nc(C(=O)NCC(=O)NCCC3=CCCCC3)c3ccccc3c2=O)cc1 | 0.8 | -10% | 14%[15.4 µM] | -8.0 | · | -14
Cc1ccc(C(=O)c2sc3nsc(C)c3c2N)cc1 | 0.6 | -3%[15.4 µM] | -32% | 7.0 | -1.2% | -14
C=CCNc1cc(=O)n(Cc2ccccc2)c(=O)[nH]1 | -0.4 | 8% | 3%[15.4 µM] | · | 0.1% | -2
Cc1cc(C)n(CCc2nc3c4ccccc4n(CC#N)c(=O)n3n2)n1 | -1.1 | 22% | ? | -1.5 | -7.5% | 7
COc1cc(SC)ccc1C(=O)NCc1ccc(C)cc1 | 1.0 | ? | -2% | 3.2 | -1.1% | 1
CC(=O)NN1C(=O)c2ccc(Oc3cccc([N+](=O)[O-])c3)cc2C1=O | 0.7 | -5% | 8% | -1.0 | -1.2% | 31
Cc1cc(=O)[nH]c2nnc(SCc3ccc(F)cc3)n12 | 0.9 | · | · | · | -5.5% | -3
COc1ccc(Cn2c(O)c(C=Nc3ccc(O)cc3)c3ccccc3c2=O)cc1 | 5.6 | -23% | -7% | -28 | -0.3% | 35
COc1cc([C@H]2[C@@H]3CCCC[C@]3(O)CCN2Cc2ccccc2F)ccc1O | 0.5 | 14% | -28% | 1.7 | 4.0% | 33
NCCNC(=O)Cn1c(=O)c2c3c(sc2n(Cc2ccccc2)c1=O)CCCC3 | -0.8 | -1% | 9%[15.4 µM] | -2.2 | -1.8% | -8
Cc1[nH]c2ccccc2c1NC(=O)CN1CCN(C(=O)c2ccco2)CC1 | -0.1 | 0% | -6%[15.4 µM] | ? | · | -1
Cc1ccc(CCC(=O)Nc2ccc([N+](=O)[O-])cc2)o1 | 0.4 | 3% | -20% | 1.8 | · | -9
CC1Cc2ccccc2N1C(=O)CNCCCN(C)C (configuration not stated) | -0.3 | 6% | -31%[inhibitor] | -2.3 | -4.4% | 0
CCC1CN(C(=O)NCc2ccccc2)c2ccccc2O1 (configuration not stated) | 0.0 | 4% | 7%[15.4 µM] | 3.1 | -3.8% | 4
COc1cccc(Nc2ncccc2C(=O)Nc2ccccc2)c1 | 1.4 | -10% | 11% | 2.3 | -3.5% | -19
Cc1occc1C(=O)N/N=C/C=C/c1ccccc1 | -0.2 | -4% | -6% | -8.9 | -2.8% | 5
COc1cc(-c2nn3c(-c4ccccc4)nnc3s2)cc(OC)c1OC | 1.8 | 17% | -16% | 3.7 | -8.3% | 2
S=c1nc[nH]c2c1sc1nc(-c3ccccc3)c3c(c12)CCCC3 | -0.2 | -7% | ? | -0.7 | -4.1% | 5
CC(C)c1ccc(NC(=O)Cn2c(=O)n(CC3CCC(C(=O)NCCc4ccccc4)CC3)c(=O)c3ccccc32)cc1 (configuration not stated) | 0.2 | · | · | · | -4.5% | -17
CCS(=O)(=O)c1nc(S(=O)(=O)c2ccc(Cl)cc2)c(NCCCN2CCOCC2)s1 | 0.5 | 4% | ? | · | 0.8% | -7
CCOCc1nnc(NC(=O)c2ccc3c(c2)OCO3)s1 | -0.1 | -8% | 2%[15.4 µM] | · | -19% | 18
COc1ccc(NC(=O)CCS(=O)(=O)c2cccc3nonc23)c(OC)c1 | -1.2 | -9% | -14% | 3.9 | -3.7% | -7
CCOC(=O)CNC(=O)COc1coc(CN2CCN(c3ccccc3)CC2)cc1=O | -0.1 | 7% | 15% | · | -1.5% | -11
COc1cc(CN2CCN(CCCc3ccccc3)CC2CCO)cc(OC)c1 (configuration not stated) | 0.0 | 9% | 1% | 3.2 | · | 4
O=C(CSc1nnc(NC(=O)C2CC2)s1)NCc1ccccc1 | 1.1 | -3% | -4%[15.4 µM] | 1.5 | · | -2
CC1(C)CC(=O)c2c(O)c(-c3ccccc3)c(=O)n(-c3ccccc3)c2C1 | -0.3 | -30% | ? | 3.1 | 1.0% | -9
O=C(Nc1ccnn1C1CCN(C(=O)c2ccc(F)cc2)CC1)C1CCOC1 (configuration not stated) | 0.5 | -10% | 26% | -1.5 | -0.8% | -4
CSc1sc(C(=O)NCC2CC2)c(-c2cccs2)c1C#N | 2.9 | ? | 2%[15.4 µM] | -0.1 | · | 6
CC(C)COc1ccc(C(=O)Nc2ccc(NC(=O)c3ccco3)c(Cl)c2)cc1 | 1.4 | -4% | 5% | 9.0 | -6.2% | 2
O=C(CC1CCCCC1)Nc1ccc(-c2ccc3nncn3n2)cc1 | 0.1 | -4% | -9%[15.4 µM] | 1.6 | · | 20
COc1ccc(C)cc1NC(=O)C1CCN(C(=O)C2CC(=O)N(c3ccc(C)cc3)C2)CC1 (configuration not stated) | -0.8 | -20% | 20% | -6.0 | · | 6
COc1cc(/C=C2\C(=O)N(c3ccccc3)N=C2C)ccc1Oc1ccc([N+](=O)[O-])cc1[N+](=O)[O-] | -0.1 | -7% | -15% | 7.0 | -3.6% | 4
Cc1c(NC(=O)c2ccc(N3C(=O)C4C5C=CC(C5)C4C3=O)cc2)c(=O)n(-c2ccccc2)n1C (configuration not stated) | -0.3 | 1% | -11% | 5.4 | 1.9% | 1
C[C@@H]1CC=C[C@H]2[C@H]1C(=O)N(Cc1ccccc1)[C@H]2c1ccc(C(F)(F)F)cc1 | 3.0 | -6% | · | 2.1 | -6.0% | 82
COc1ccccc1OCC(=O)Nc1cccc(S(=O)(=O)NC2=NCCCCC2)c1 | 0.2 | -5% | 11%[15.4 µM] | · | -0.9% | 3

# The closing 2 entries of the part above are carried over, then new ones follow.
mol | TRPML1 ag | gsp antag | gsp ag | Menin-MLL FL inh | ClpP mod | TRPML1 blocker
C[C@@H]1CC=C[C@H]2[C@H]1C(=O)N(Cc1ccccc1)[C@H]2c1ccc(C(F)(F)F)cc1 | 3.0 | -6% | · | 2.1 | -6.0% | 82
COc1ccccc1OCC(=O)Nc1cccc(S(=O)(=O)NC2=NCCCCC2)c1 | 0.2 | -5% | 11%[15.4 µM] | · | -0.9% | 3
CCOC(=O)C1CCN(C(=S)Nc2ccc(C)cc2)CC1 | 0.3 | 0% | 4% | 4.1 | 3.1% | -18
COc1ccc(C(=O)NC(=S)N2CCNC(=O)C2CC(=O)OC(C)C)cc1 (configuration not stated) | 0.0 | -9% | -19% | · | -1.0% | 57
CCCC(=Nc1ccccc1)C1=C(O)C(C(=O)OC)C(C)(C)CC1=O (configuration not stated) | -0.3 | 2% | -34%[inhibitor] | 8.0 | 3.0% | -4
Cc1ccc2c(CC(=O)Nc3c(C(=O)c4ccc(F)cc4)oc4ccccc34)coc2c1 | 0.4 | · | · | · | -12% | 2
COc1cc(C(=O)N2CCC(NC(=O)C(Cc3ccccc3)NC(C)=O)CC2)cc(OC)c1OC (configuration not stated) | 0.1 | 3% | -5% | -0.8 | -6.7% | -2
O=C(Nc1c[nH]c(=O)[nH]c1=O)c1ccc([N+](=O)[O-])cc1 | 1.2 | 2% | 35% | -2.4 | 0.9% | 8
CCOC(=O)N1CCN(C(=O)CCC(=O)N2CCOc3ccc(C)cc32)CC1 | -0.2 | -8% | -24% | -1.9 | -2.3% | 36
O=C(Cc1c(O)c2ccccc2[nH]c1=O)N(Cc1ccccc1)Cc1ccccc1 | 2.2 | 9% | 11% | 0.1 | ? | -8
OCC[C@H]1C[C@H](O)[C@@H](O)[C@]2(CCCc3ccccc3O2)O1 | 0.3 | 9% | ? | · | -0.1% | 7
COc1ccc(NS(=O)(=O)c2cc(NC(=O)CC3CCCC3)ccc2N2CCOCC2)cc1 | 0.9 | · | -2%[15.4 µM] | 3.7 | · | 0
Cc1nc2ccccn2c(=O)c1NC(=O)c1ccc(F)c(F)c1 | 0.0 | · | · | · | -3.5% | -1

# Molecules from the list above that contain a furan ring, fused or not, in the order listed:
mol | TRPML1 ag | gsp antag | gsp ag | Menin-MLL FL inh | ClpP mod | TRPML1 blocker
Cc1[nH]c2ccccc2c1NC(=O)CN1CCN(C(=O)c2ccco2)CC1 | -0.1 | 0% | -6%[15.4 µM] | ? | · | -1
Cc1ccc(CCC(=O)Nc2ccc([N+](=O)[O-])cc2)o1 | 0.4 | 3% | -20% | 1.8 | · | -9
Cc1occc1C(=O)N/N=C/C=C/c1ccccc1 | -0.2 | -4% | -6% | -8.9 | -2.8% | 5
CC(C)COc1ccc(C(=O)Nc2ccc(NC(=O)c3ccco3)c(Cl)c2)cc1 | 1.4 | -4% | 5% | 9.0 | -6.2% | 2
Cc1ccc2c(CC(=O)Nc3c(C(=O)c4ccc(F)cc4)oc4ccccc34)coc2c1 | 0.4 | · | · | · | -12% | 2

# High-throughput results as filed in PubChem.
